High-throughput results deposited in PubChem by ICCB-Longwood Screening Facility, Harvard Medical School.
Anaer choline gr = inhibitors of anaerobic choline-dependent gram-negative bacterial growth; Gram-negative bacterium anaerobic choline minimal medium, absorbance growth; active compounds read low; many inactives read as strong as hits in the columns shown; calls only; actives 0.2% (n = 55,000); AID 1963822;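 active means growth z-score on choline under -2 at 7 or 20 h with little or no fall on glycerol, limits in tiers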;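 further: stock transfer was 300 nL into about 50 µL; the organism is E. coli; final concentration not given here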
Anaer choline gr early = further read-out of Anaer choline gr, marked with its call; z-score; measured here: choline growth z-score, timepoint 1;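 score of optical density at 7 h as mean of two plates; lower means less growth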
Starred values were filed as active, the others as inactive; i = inactive; & = joins results of further samples. Not all compounds are listed (hit frequency here may not be typical).

nr	canonical_smiles	Anaer choline gr	Anaer choline gr early
1	OC(COc1ccccc1)Cn1c(Cc2ccc(Cl)cc2)nc2ccccc21 (stereo unspecified)	i	0.75
2	Cc1[nH]c(C(=O)N2CCC(CC(=O)NC3CCCCCC3)CC2)c(C)c1C	i	-0.83
3	CCCCCOC(=O)c1ccc(NC2=NS(=O)(=O)c3ccccc32)cc1	i	0.25
4	COc1cccc(-c2cn3nc(C4CC4)sc3n2)c1	i	-0.45
5	CCCN1CCN(c2ncnc3sc(C(=O)NC)c(C)c23)CC1	i	-0.47
6	Cc1ccc(-c2nccc(N3CCN(C(=O)c4ccccc4Br)CC3)n2)cc1	i	-0.16
7	COc1cccc(NC(=O)CN(C)S(=O)(=O)c2ccc3c(c2)C(=O)NCC(=O)N3)c1	i	-0.38
8	O=C(c1cc(-c2ccc(Br)cc2)n[nH]1)N1CCN(c2ccc(N3CCOCC3)nn2)CC1	i	0.25
9	COc1ccc(N2CCN(C3CC(=O)N(c4cccc(Cl)c4)C3=O)CC2)cc1 (stereo unspecified)	i	-1.22
10	CC(C)n1c(CN2CCOCC2)nc2ccccc21	i	-0.73
11	c1ccc(Nc2nc(N3CCN(c4ccccc4)CC3)nc3c2cnn3-c2ccccc2)cc1	i	0.22
12	COc1ccccc1Oc1cc(-c2ccc(C(=O)Nc3ccccc3C)cc2)ncn1	i	2.01
13	COc1ccc(NC(=O)CCNc2c(N3CCCC3)c(=O)c2=O)cc1	i	-2.54
14	CCn1c(=O)n(CC)c2cc(N3CCCC3)c(NC(=O)c3sc4ccccc4c3Cl)cc21	i	0.51
15	O=c1c2sc3ccccc3c2n(Cc2ccc(F)cc2)c(=O)n1Cc1ccccn1	i	1.29
16	Cc1nn(-c2ccccc2)c2c1-c1sc(C(=O)NCc3ccccn3)cc1CC2	i	-0.02
17	CCOc1ccc(-c2noc(CCCC(=O)Nc3cccnc3)n2)cc1OC	i	-0.17
18	O=c1c2cc3c(cc2nc(SCc2nc(-c4cccc(F)c4)no2)n1Cc1ccncc1)OCO3	i	0.5
19	Cc1oc(-c2ccccc2)nc1CSc1nc(-c2ccccc2)cc(=O)[nH]1	i	0.24
20	COc1ccc(OC)c(S(=O)(=O)Cc2nc(-c3ccc4c(c3)OCO4)no2)c1	i	-0.49
21	COc1cccc(CC(=O)N2CCOc3ccc(CN(C(=O)C4CC4)c4ccccc4)cc3C2)c1	i	0.24
22	O=C(c1cccc(F)c1)N1CCN(C(=O)c2cc3cc(Br)ccc3[nH]2)CC1	i	-0.5
23	Cc1c(-c2nnc(C(=O)NCCN3CCCC3)o2)oc2ccccc12	i	-5.3
24	Cc1cccc(C2c3cccn3-c3c(c(C)nn3-c3ccccc3)CN2C(=O)Nc2ccc3c(c2)OCO3)c1 (stereo unspecified)	i	-1.18
25	COc1ccc(-c2nc(CN3C(=O)COc4ccccc43)no2)c(OC)c1	i	1.09
26	O=C(Nc1ccccc1)C1CCCN(c2ccc3cc(S(=O)(=O)N4CCCC4)ccc3n2)C1 (stereo unspecified)	i	-0.36
27	CC[N+](C)(C)c1cccc(O)c1	i	-0.64&0.02
28	NS(=O)(=O)c1ccc(CCNC(=O)CSc2nc3ccccc3c(=O)n2C2CCCCC2)cc1	i	-0.13
29	Cc1nc(N(C)C)cc(N2CCN(C(=O)Nc3ccc(C)c(C)c3)CC2)n1	i	1.56
30	Cc1c(S(=O)(=O)N2CCCCCC2)c(C)n(C)c1-c1nnc(C2CCC2)o1	i	-0.43

The last 2 records of the part before lead into the next:
nr	canonical_smiles	Anaer choline gr	Anaer choline gr early
29	Cc1nc(N(C)C)cc(N2CCN(C(=O)Nc3ccc(C)c(C)c3)CC2)n1	i	1.56
30	Cc1c(S(=O)(=O)N2CCCCCC2)c(C)n(C)c1-c1nnc(C2CCC2)o1	i	-0.43
31	COc1ccc(N2C(=O)c3ccccc3C2C(=O)NCCC(C)C)cc1Cl (stereo unspecified)	i	0.68
32	NS(=O)(=O)c1ccc(CCNC(=O)C(NS(=O)(=O)c2cccc3nsnc23)c2ccccc2)cc1 (stereo unspecified)	i	-0.19
33	CCN1CCCn2nc(C3CCN(C(=O)c4sccc4C)CC3)cc2C1=O	i	0.21
34	CC(C)c1ccc(CN(C(=O)c2cc(-c3ccc4c(c3)OCCO4)on2)C2CCS(=O)(=O)C2)cc1 (stereo unspecified)	i	1.36
35	Cn1cnc2cc(-c3noc(CNC(=O)C(c4ccccc4)c4ccccc4)n3)ccc21	i	0.34
36	CC(C)C(=O)Nc1nn2c(-c3ccccc3)nnc2s1	i	0.61
37	Cc1ccc(C(=O)Nc2ccc(Oc3nc4ccccc4n4cnnc34)cc2)cc1	i	0.73
38	Cc1csc2ncc(C(=O)N3CCN(Cc4ccc5c(c4)OCO5)CC3)c(=O)n12	i	0.7
39	Cc1c(C2CCN(S(=O)(=O)c3cn(C)cn3)CC2)c2ccccc2n1Cc1ccc(Cl)cc1	i	0.17
40	CCC(C)NC(=O)C1CCCN(C(=O)c2cc(-c3ccccn3)n[nH]2)C1 (stereo unspecified)	i	0.51
41	O=C(Cn1nc2ccc(SC3CCCCC3)nn2c1=O)NC1CCCCC1	i	0.4
42	CCOC(=O)c1c(S(=O)(=O)NCC(=O)Nc2ccc(F)c(Cl)c2)c(C)n(CC)c1C	i	-0.03
43	CCn1cc(S(=O)(=O)Nc2ccc3nc(S(=O)(=O)CC)sc3c2)cn1	i	0.14
44	CCCCCCCCCCCCCCCC(=O)OC(CC(=O)O)C[N+](C)(C)C (stereo unspecified)	i	0.72&1.18
45	O=C(Nc1ccccc1Br)N1CCC2(CC1)Nc1ccccc1-n1cccc12	i	-0.21
46	CCc1cccc(C)c1-n1nnnc1C1(N)CCCC1	i	-0.45
47	O=C(Cn1c(=O)n(Cc2ccccc2)c(=O)c2ccccc21)NCCC1=CCCCC1	i	0.57
48	CC1CCC(NC(=O)c2ccc3c(c2)nnn3C)CC1 (stereo unspecified)	i	-0.61
49	COc1ccc(CC2C(=O)Nc3ccc(Br)cc32)c(OC)c1 (stereo unspecified)	i	-2.06
50	O=c1oc2cc(OCc3nn[nH]n3)ccc2c2c1CCC2	i	0.41
51	CCN(Cc1ccccc1)c1ncc(NS(=O)(=O)c2cc(C)ccc2C)cc1C(=O)O	i	-0.99
52	Cc1nn(-c2ccc(Cl)cc2)c2sc(C(=O)NC3CCCc4ccccc43)cc12 (stereo unspecified)	i	-0.39
53	CCCn1c(C)ccc(-c2noc(CCCC(=O)NC(C)C)n2)c1=O	i	-0.21
54	O=C(NC1CC1)C1CCN(c2ccc(-c3ccc(F)cc3)nn2)CC1	i	-0.28
55	CCOC(=O)c1cnn(-c2cc(C)nc3c(-c4ccccc4Cl)c(C(F)(F)F)nn23)c1N	i	0.56
56	COc1ccc(C(=O)N2CCN(Cc3noc(-c4ccccc4)n3)CC2)cc1	i	-0.57
57	C=Cc1ccc(COC(=O)c2nnn(-c3ccc(OCC)cc3)c2C)cc1	i	1.08
58	Cc1ccc(C2=NS(=O)(=O)N(C)C(C(=O)Nc3cccnc3)=C2)cc1	i	0.42
59	Cc1ccc(/C=C/c2onc(C)c2S(=O)(=O)N2CCC(C(=O)N3CCC(N(C)CC4CCCO4)CC3)CC2)cc1 (stereo unspecified)	i	1.13
60	Cc1cc(C)c2c(n1)sc1c(=O)n(CC(=O)NC(C)C)cnc12	i	0.47

Complete entries, looked up by structure. Values in the order: Anaer choline gr, Anaer choline gr early
Cn1cnc2cc(-c3noc(CNC(=O)C(c4ccccc4)c4ccccc4)n3)ccc21 across the screens: i, 0.34
CCN1CCCn2nc(C3CCN(C(=O)c4sccc4C)CC3)cc2C1=O across the screens: i, 0.21
Cc1cc(C)c2c(n1)sc1c(=O)n(CC(=O)NC(C)C)cnc12 across the screens: i, 0.47
CCCCCCCCCCCCCCCC(=O)OC(CC(=O)O)C[N+](C)(C)C (stereo unspecified) across the screens: i, 0.72&1.18
CCOC(=O)c1c(S(=O)(=O)NCC(=O)Nc2ccc(F)c(Cl)c2)c(C)n(CC)c1C across the screens: i, -0.03

Additional entries:
nr	canonical_smiles	Anaer choline gr	Anaer choline gr early
61	Cc1ccccc1Nc1nnc(C)c(=O)[nH]1	i	1.34
62	O=c1oc2ccccc2n1Cc1noc(Cc2c[nH]c3ccccc23)n1	i	0.58
63	COC(=O)c1ccccc1NC(=O)CSc1nc(C)cc(C)c1C(=O)Nc1ccccc1C	i	-0.4
64	CCOC(=O)c1cc2n(n1)CC(C)(C(=O)NC1CCC(C)CC1)N(c1ccc(F)cc1)C2=O (stereo unspecified)	i	-0.26
65	CCCN(CC)CCCNC(=O)C1CCN(c2nc3cccnc3s2)CC1	i	-1.19
66	CCCn1c(=O)c2ccccc2n2c(=O)n(CC(=O)c3cc(C)ccc3C)nc12	i	-0.18
67	COc1ccc(N2CCN(S(=O)(=O)c3cc(-c4cc(C(F)(F)F)on4)cs3)CC2)cc1	i	-0.54
68	Cc1cc(N2CCN(Cc3ccccc3Cl)CC2)n2ncc(-c3ccc(F)cc3)c2n1	i	-1.56
69	Cc1ccc(C)c(NC(=O)C(C)n2nnc3sc4c(c3c2=O)CCCC4)c1 (stereo unspecified)	i	0.13
70	O=C1CC(NCC2CCCO2)C(=O)N1c1ccc(F)cc1 (stereo unspecified)	i	1.11
71	CC(CCCCC(=O)Nc1ccc(C(F)(F)F)cc1)NCCc1cnc[nH]1 (stereo unspecified)	i	0.41
72	O=C(Nc1ccncc1)c1nc(-n2cnnc2)ccc1Br	i	-1.56
73	COc1cccc(CNC2=NCCNC23CCOCC3)c1	i	-0.23
74	COc1ccc(NC(=O)Cn2nc(C(=O)N3CCCC3)c3ccccc32)cc1	i	-0.6
75	Cc1ccc2c(cnn2C(=O)Nc2ccc3c(c2)OCCO3)c1	i	0.92
76	Cc1nn(-c2nc3ccccc3[nH]2)c2c1C(c1cccnc1)CC(=O)N2 (stereo unspecified)	i	1.59
77	CN(C)C(=O)c1ccc(N2CCNCC2)c(NS(=O)(=O)c2ccc(Br)cc2)c1	i	0.53
78	Cc1ccc(C)c(N2C(=O)c3cc4ccsc4n3CC2(C)C(=O)NC2CCCC2)c1 (stereo unspecified)	i	1.33
79	O=C(Nc1cccc(Cl)c1)c1nc(Nc2ccccc2)c2ccccc2n1	i	-0.43
80	Cc1ccc(NC(=O)Nc2c[nH]c(=O)[nH]c2=O)cc1C	i	0.61
81	COc1ccc(OC)c(C2CC(=O)Nc3c2c(C)nn3-c2ccc3nnc(C)n3n2)c1 (stereo unspecified)	i	0.08
82	Cc1nnc(-c2c(S(=O)(=O)NC3CCN(Cc4ccccc4)CC3)c(C)n(C)c2C)o1	i	1.02
83	O=C(Nc1ccc(-c2ccnc(Nc3ccc(N4CCOCC4)cc3)n2)cc1)C1CCCN1 (stereo unspecified)	i	0.57
84	COc1ccc(-n2ncnc2-c2cc3c(n(-c4ccc(OC)cc4)c2=O)CC(C)(C)CC3=O)cc1	i	0.49
85	Cc1nn(-c2ccccc2)c(-n2cccc2)c1C(=O)N1CCC(C(=O)NC2CCCCC2C)CC1 (stereo unspecified)	i	0
86	CCc1cc(C2CCCN2S(=O)(=O)c2ccc(CC(C)C)cc2)on1 (stereo unspecified)	i	2.13
87	Cc1cc(NC(=O)C(C)Oc2ccccc2)n(-c2ncnc3c2cnn3-c2ccc(Cl)cc2)n1 (stereo unspecified)	i	0.56
88	COc1ccc(NC(=O)c2cn(-c3ccccc3)cn2)cc1Cl	i	1.57
89	Cc1ccc(C)c(Cn2cnc3oc(C)c(C)c3c2=O)c1	i	0.04
90	Oc1ccc2ccccc2c1SSc1c(O)ccc2ccccc12	i	-0.02

The list goes on.
nr	canonical_smiles	Anaer choline gr	Anaer choline gr early
91	CC1CCN(S(=O)(=O)c2ccc3c(c2)oc(=O)n3CC(=O)N2CCCC(C)C2)CC1 (stereo unspecified)	i	0.76
92	NS(=O)(=O)c1ccc(CCNS(=O)(=O)c2ccc3c(c2)NC(=O)CO3)cc1	i	0.88
93	Cn1cc(CCN2CCC(C(=O)N3CCC4(CC3)OCCO4)CC2)c2cccnc21	i	-2.29
94	O=C(CCn1nc(C(=O)N2CCc3ccccc32)ccc1=O)N1CCc2ccccc21	i	0.74
95	Cc1ccccc1NC(=O)CN(C)S(=O)(=O)c1cc2c(cc1C)NC(=O)CO2	i	0.27
96	O=C(c1ccc(CN2C(=O)CCn3nc(-c4ccc(Cl)cc4)cc32)cc1)N1CCCC1	i	-1.6
97	Cc1nnc(-c2cccn2CC(=O)NC2CCCC2)o1	i	-0.1
98	O=S(=O)(c1ccc2c(c1)CCCC2)N1CCCn2nc(-c3cccnc3)cc2C1	i	0.81
99	CN(C)CCNC(=O)c1cccc(C(=O)NCCN(C)C)n1	i	-1.4
100	COCCn1nnc2cc(S(=O)(=O)N3CCCCC3C(=O)Nc3ccccc3Cl)ccc21 (stereo unspecified)	i	0.41
101	COc1ccc(N2CC(C(=O)NCCS(=O)(=O)N3CCc4ccccc4C3)CC2=O)cc1 (stereo unspecified)	i	0.35
102	O=C(CCn1cnc2ccccc2c1=O)N1CCN(c2ccccc2F)CC1	i	-0.1
103	COc1ccc(/C=C/C(=O)CC(=O)/C=C/c2cccc(O)c2OC)cc1O	i	-0.66
104	CCC(C)NC(=O)c1n[nH]c2c1CCCCCC2 (stereo unspecified)	i	-0.09
105	CCC(=O)N1c2ccccc2NC2=C(C(=O)CC(C)(C)C2)C1CC1CC=C(C)C1(C)C (stereo unspecified)	i	-1.21
106	O=C(Cn1ncc2c(c1=O)N(C1CC1)C(=O)CS2)N1CCCc2ccccc21	i	-0.55
107	Clc1ccc(-c2noc3c(NCc4ccccc4Cl)ncnc23)cc1	i	2.25
108	O=C1CC(c2ccc(O)c(O)c2)c2c(nc(SCc3ccc(Cl)cc3)[nH]c2=O)N1 (stereo unspecified)	i	0.54
109	CC(C)C1CCC(C(=O)NC(Cc2ccccc2)C(=O)O)CC1 (stereo unspecified)	i	0.68
110	O=C(Cc1csc(NC(=O)Nc2cccc(Cl)c2)n1)Nc1ccccc1	i	1.25

As entered above.
Reading of CCC(C)NC(=O)c1n[nH]c2c1CCCCCC2 (stereo unspecified) in Anaer choline gr early: -0.09
Reading of Cn1cc(CCN2CCC(C(=O)N3CCC4(CC3)OCCO4)CC2)c2cccnc21 in Anaer choline gr early: -2.29
